From PubChem BioAssay
BJeLR lethal: kills HRASV12-expressing BJeLR cells. AID 1554. BJeLR (HRASV12) viability, CellTiter-Glo ATP luminescence, 48 h; reference of the scale not given here. inhibition, % (no concentration beside the values). hit rate 0.17% among 300,000;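 active means replicate mean above 50%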;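 further: 50 nL library stock added to about 25 µL; numbers are from one replicate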
Mtb hypoxia rep: Mtb hypoxia fluorescent reporter inhibition. M. tuberculosis hypoxia-regulated fluorescent reporter, fluorescence. fluorescence inhibition, % (no concentration beside the values). hit rate 0.1% among 300,000. AID 1159583;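 active means 35 to 45% if threefold the growth effect, above 45% if 1.5-fold the growth effect; inactive means the rest, general growth blockers included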;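 further: wells of about 50 µL received 100 nL stock; 0% = vehicle wells and 100% = reference inhibitor wells; whole bacteria with a GFP reporter of the hypoxia response; strong numbers were not always called active; many hits fall short of the cut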
RN4220 kill: S. aureus RN4220 growth inhibition; inhibition, % (test concentration not listed); OD600, 16 h; hit rate 0.33% among 330,000; AID 1259311;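 active means z-score of -3 or lower and OD600 up to 0.18 on both plates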;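 further: plate controls were untreated cells for no effect and reference antibiotic for full effect; stock transfer was 100 nL into about 80 µL; one replicate is shown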
PrP 5UTR inh: inhibition of PrP 5' UTR reporter expression | inhibition, % (concentration not given with the values) | AID 488862 | cell-based PrP 5' UTR mRNA reporter, plate reader | hit rate 0.35% among 340,000;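 active means every replicate at 50% or more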;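 further: 0 = median of the neutral control wells; tested in H4 reporter cells; numbers are from one replicate; inactives centre near -14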
ugtP null kill: growth inhibition of S. aureus ugtP deletion strain; S. aureus RN4220 ugtP deletion, OD600 growth, 16 h; some inactives read as strong as hits; growth inhibition, % (test concentration not listed); hit rate 0.54% among 330,000; AID 1259309;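 active means z-score under -3 and OD600 up to 0.15 on both plates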;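 further: plate controls were untreated wells for no effect and antibiotic for full effect; wells of about 80 µL received 100 nL stock; the first replicate is given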
Bead autofluor: counter-screen for toxin protease inhibitors: compound fluorescence | compound autofluorescence counterscreen, microsphere flow cytometry; active compounds read high | fluorescence intensity (no concentration beside the values) | hit rate 3.1% among 360,000 | AID 624483;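 active means at least 3 SD above the mean of all compounds, about 16000 in these data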;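 further: 100 nL of 1 mM stock went into each well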
Mtb hypoxia rep growth: second read-out of Mtb hypoxia rep, no call of its own (marks repeat the call); growth inhibition, %; measured here: M. tuberculosis growth (absorbance);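 0% = vehicle and 100% = reference antibiotic; read after six days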
* = called active by the depositor; . = not tested or not shown; & = joins results of further samples.

Fields: BJeLR lethal, Mtb hypoxia rep, Mtb hypoxia rep growth, RN4220 kill, PrP 5UTR inh, ugtP null kill, Bead autofluor
(1) COc1cc(C2NC(=O)NC(C)=C2C(=O)Nc2cccc(C)c2C)cc(OC)c1OC (stereo unspecified)
    -7, ., ., -1.5, -13, 0, 3235
(2) Cc1cc(C(=O)CSc2nc(N)cc(=O)[nH]2)c(C)n1-c1cccc(F)c1
    5, 4, 11, -0.6, -14, 1, 7005
(3) Cc1cc(NCCN2CCOCC2)n2nc(C)c(-c3ccccc3)c2n1
    -2, ., ., -0.9, -37, -4, 4901
(4) O=S(=O)(NCc1ccccc1Cl)c1ccc(-n2cnnn2)cc1
    -5, 12, 2, 4.0, -5, 11, 3688
(5) CC(C)CNCC(=O)N1c2ccccc2Sc2ccccc21
    14, ., ., 2.6, -20, -2, 3417
(6) O=C(CN(CC1CCCO1)C(=O)CNS(=O)(=O)c1ccc(Cl)cc1)NCC1CCCO1 (stereo unspecified)
    -7, 10, 3, 4.0, -3, 6, 9544
(7) CC1=CC(=C(C#N)C#N)C=C(C)N1CCN1CCN(C(=O)Nc2ccc(Cl)c(Cl)c2)CC1
    0, -3, -2, 0.9, 2, 13, 2024
(8) COc1ccccc1/C=C/C(=O)NCC(=O)N/N=C/c1ccc(C(=O)O)cc1
    6, ., ., ., -6, ., 5513
(9) CC1CCCN(CC(=O)Nc2ccc(S(=O)(=O)NC3CCCCC3)cc2)C1 (stereo unspecified)
    5, 10, 2, -2.1, -3, -3, 9663
(10) COc1ccccc1N(C)S(=O)(=O)c1ccc(Cl)c(C(=O)N2CCC(C(N)=O)CC2)c1
    -7, -7, 2, 0.5, -19, 0, 2704
(11) COc1ccc(C2=NCC(CSc3nccc(=O)[nH]3)S2)cc1 (stereo unspecified)
    -2, ., ., 10, -19, 4, 4378
(12) Cc1ccccc1OCCCCN1CCCCC1
    5, ., ., ., -34, ., 3828
(13) Cn1c(SCc2nc(-c3ccc(Cl)cc3)no2)nnc1-c1ccccc1
    -2, -7, -4, 4.3, -18, 1, 20554*
(14) O=C(O)c1cccc(Cn2c(Cl)c(/C=N/Nc3ccccc3)sc2=O)c1
    2, ., ., ., 2, ., 4413
(15) O=C(Nc1ccc(Cl)cc1)C1CCCN1C(=O)NCc1ccccc1 (stereo unspecified)
    0, -4, -4, 1.1, -1, 2, 4926
(16) COC(=O)c1scc(C)c1NN=C(C)c1cc(F)c(Cl)cc1F
    ., 0, 2, -1.3, ., 4, .
(17) CCOC1OC(C(=O)N2CCOCC2)=CC(C(C)(C)C)C1CCCO (stereo unspecified)
    ., 20, 6, 8.0, ., 1, .
(18) COC(=O)c1cc(-c2ccccc2)n(CCN)c1C
    19, 1, 0, 1.9, -21, 4, 3884
(19) CC(C)NC(=O)NNc1c(Cl)cncc1Cl
    -4, -8, -4, 2.7, -87, 13, 3842
(20) CC(C)CC(=O)Nc1ccccc1N1CCN(c2ccc(F)cc2)CC1
    -8, -3, 4, -0.5, -24, 10, 6508
(21) COc1cc(NC(=O)COC(=O)CNC(=O)c2ccc(C)s2)cc(OC)c1
    7, 6, 0, 4.3, -6, -3, 3986
(22) O=C(O)C1CC(c2ccccc2)=Nc2ccccc2S1 (stereo unspecified)
    10, -4, 6, 5.8, -32, -2, 4160
(23) COc1ccc(CCNC(=O)C2CCN(S(=O)(=O)N3CCC(C)CC3)CC2)cc1OC
    10, -3, 2, 0.5, -76, -3, 4006
(24) O=C1C2C3C=CC(C3)C2C(=O)N1CCCCCCN1C(=O)C2C3C=CC(C3)C2C1=O (stereo unspecified)
    ., -1, 10, 1.3, -7, 13, 4223
(25) CCCCn1c(N)c(N(CC)C(=O)c2cc(C)cc(C)c2)c(=O)[nH]c1=O
    -9, -2, -18, 0.6, -10, 5, 3727
(26) Cc1ccccc1OCCCC(=O)NC1CCCCC1
    -1, 8, -3, 3.6, -8, 4, .
(27) COc1ccc(/C=C2/SC(=S)N(NS(=O)(=O)c3ccccc3)C2=O)cc1
    9, 7, 7, 37, -9, 53, 5887
(28) CC1C(=O)N2CCCc3cc(S(=O)(=O)NCc4ccc(F)cc4)cc1c32 (stereo unspecified)
    7, 7, 14, 2.3, 2, 0, .
(29) N#C/C(=C\c1cccs1)C(=O)N1CCOCC1
    -2, 0, -1, 1.5, -15, 6, 4098
(30) CC(=O)N/C(=C\c1ccccc1)C(=O)OCC(=O)Nc1cc(S(=O)(=O)N(C)C)ccc1C
    -2, 3, 2, -0.5, -15, 0, 6608

From entry 29 up to 30, copied from above:
Fields: BJeLR lethal, Mtb hypoxia rep, Mtb hypoxia rep growth, RN4220 kill, PrP 5UTR inh, ugtP null kill, Bead autofluor
(29) N#C/C(=C\c1cccs1)C(=O)N1CCOCC1
    -2, 0, -1, 1.5, -15, 6, 4098
(30) CC(=O)N/C(=C\c1ccccc1)C(=O)OCC(=O)Nc1cc(S(=O)(=O)N(C)C)ccc1C
    -2, 3, 2, -0.5, -15, 0, 6608

Following part.
Fields: BJeLR lethal, Mtb hypoxia rep, Mtb hypoxia rep growth, RN4220 kill, PrP 5UTR inh, ugtP null kill, Bead autofluor
(31) Cc1ccc(NC(=O)CCNC(=O)c2ccc([N+](=O)[O-])cc2)cc1S(=O)(=O)N(C)C
    -4, 3, 2, 4.3, -25, 3, 3594
(32) Cc1ccc(S(=O)(=O)N2CCCCC2)cc1NC(=O)COc1ccccc1F
    -1, 14, 3, 2.5, -32, 4, 4458
(33) CCOC(=O)c1ccccc1NC(=O)Cn1cnc2c(nnn2-c2ccc(C)cc2)c1=O
    4, 2&-7, 7&2, 4.1&13, -5, -5&3, 6881
(34) CC(C)OC(=O)CSc1nnc(Cc2ccccc2)n1CC1CCCO1 (stereo unspecified)
    0, ., ., -0.2, -4, 6, 4599
(35) OCCC1CN(Cc2cnc(N3CCOCC3)s2)CCN1C1CCCC1 (stereo unspecified)
    8, 10, -1, 2.3, -10, -1, 4155
(36) CCOC(=O)Cc1csc(NC(=O)CSc2nncn2C)n1
    4, 6, 6, 2.5, 6, 8, 2610
(37) CS(=O)(=O)c1ccccc1C(=O)Nc1cc2c(cc1C(=O)O)OCCCO2
    -14, ., ., ., -14, ., 3733
(38) COc1ccccc1C(=O)Nc1nnc(-c2ccc(F)cc2)o1
    -9, 6, -3, 7.8, -28, -6, 4412
(39) Cc1ccc2cc(C#N)c(SCC(=O)NCc3ccco3)nc2c1
    5, 15, 8, 9.2, -24, -5, 3673
(40) CCOc1ccc(C2=Nn3c(nnc3-c3ccco3)SC2)cc1
    2, 0, 9, 6.9, -4, -12, 4928
(41) COc1cc(S(=O)(=O)Nc2ccccc2N2CCCCC2)ccc1NC(C)=O
    ., -9, -2, -2.5, -18, -8, 3635
(42) O=C(COc1ccc(Cl)cc1Br)OCC(=O)c1ccc[nH]1
    ., 5, 6, 4.5, -11, -1, 5457
(43) COc1ccc(C=NNC(=O)C(=O)/C=C2\NC3(CCCC3)Cc3ccccc32)cc1
    ., 3, 3, -3.6, ., -18, .
(44) CC(C)(C)OC(=O)N1CCC(NC(=O)c2[nH]cnc2C(=O)Nc2ccccc2)CC1
    ., -13, -5, 3.9, -3, 2, 2858
(45) COCCn1c(=NC(=O)c2cc(Cl)sc2Cl)sc2cc(S(N)(=O)=O)ccc21
    -2, 5, 1, -8.8, -8, -6, 2047
(46) O=C(NCc1ccc(F)cc1)c1cnc(-c2ccccn2)nc1C(F)(F)F
    -2, ., ., 1.5, -9, -6, 3116
(47) O=C(NNc1cc(Cl)cc(Cl)c1)c1c(F)cccc1Cl
    0, 5, 9, 6.1, -19, 1, 3837
(48) Cc1cccc(-c2nc3ccccc3c(=O)n2NC(=O)Cc2ccc(Cl)cc2)c1
    -5, 10, 0, 3.6, -18, -10, 2904
(49) CC(C)NS(=O)(=O)c1ccc(OCC(=O)NCc2ccco2)cc1
    8, -1, 2, 1.6, 1, 5, 2032
(50) CCOC(=O)c1ccccc1NC(=O)CN1C(=O)c2ccccc2S1(=O)=O
    6, 5, 2, 5.7, -29, 18, 12260
(51) O=[N+]([O-])c1cccc(OCCCN2CCC(Cc3ccccc3)CC2)c1
    -13, -7, 6, -2.9, 3, -8, 5032
(52) CS(=O)(=O)NNC(=O)CN1C(=O)C2C3C=CC(C3)C2C1=O (stereo unspecified)
    11, 5, 10, 2.5, -1, 1, 4980
(53) CCOc1ccccc1NC(=O)CSc1nnc(CNC(=O)c2ccccc2F)o1
    -7, 3, -4, -1.2, -9, 3, 4947
(54) COC(=O)c1cc2ccccn2c2c(C(=O)OC)c(C(=O)OC)cc1-2
    10, 3, -2, 6.7, -8, 0, 3329
(55) CCCCOc1ccc(OCCNC(=O)C2CCCN2C(=O)Nc2ccccc2)cc1 (stereo unspecified)
    -3, -15, 0, 6.6, -29, -3, 3619
(56) CC(=NNc1nc(N2CCCCC2)nc(N2CCOCC2)n1)c1ccccc1O
    ., -4, -3, 0.7, ., -2, .
(57) O=C(CN1CCSCC1)NN=Cc1ccc(Cl)cc1
    ., -4, -8, -1.2, ., 2, .
(58) Cc1cc(Cl)ccc1NC(=O)CSc1nnc(Cc2cccs2)n1Cc1ccco1
    -1, 4, 3, 2.9, -22, -4, 9059
(59) O=C(N/N=C/C=C/c1ccccc1)C1CC1(c1ccccc1)c1ccccc1 (stereo unspecified)
    1, ., ., ., -10, ., 9193
(60) CCCC1=C(C(=O)OCC)C(c2ccc(N(C)C)cc2)n2ncnc2N1 (stereo unspecified)
    1, 1, 1, 3.5, -28, -5, 9189
(61) Cc1c(C(=O)N/N=C/c2cccs2)nnn1-c1nonc1N
    -8, ., ., ., -16, ., 3860
(62) CCN(CC)C1=NS(=O)(=O)c2cc([N+](=O)[O-])ccc21
    1, -5, 5, -5.2, -23, -6, 4712
(63) CCOC(=O)c1ccc2nc(C)c(CCC(C)=O)c(Cl)c2c1
    12, ., ., -0.1, -38, -7, 2988
(64) O=C(O)c1cc(S(=O)(=O)N(Cc2ccccc2)c2ccccc2Cl)ccc1Cl
    0, 14, -1, 8.7, -8, -1, 3707
(65) CCn1cc(C(=O)Nc2ccc(C)cc2C)c(=O)c2ccc(C)nc21
    -2, 5, 10, 5.3, ., -5, .
(66) CSCCC(NC(=O)COc1ccccc1)C(=O)OCCOc1ccc(Br)cc1 (stereo unspecified)
    5, -5, -6, 1.3, -2, -6, 3602
(67) NS(=O)(=O)c1cc(C(=O)OCC(=O)Nc2ccc3c(c2)OCO3)ccc1Cl
    ., 4, 6, 1.7, -22, -3, 3939
(68) CCOc1ccc(S(=O)(=O)N2CCCC(C(=O)NCc3ccccc3)C2)cc1 (stereo unspecified)
    -19, 4, 0, 0.6, -18, 4, 6189

Of the compounds above, ten have an aryl methoxy group:
Fields: BJeLR lethal, Mtb hypoxia rep, Mtb hypoxia rep growth, RN4220 kill, PrP 5UTR inh, ugtP null kill, Bead autofluor
(1) COc1cc(C2NC(=O)NC(C)=C2C(=O)Nc2cccc(C)c2C)cc(OC)c1OC (stereo unspecified)
    -7, ., ., -1.5, -13, 0, 3235
(8) COc1ccccc1/C=C/C(=O)NCC(=O)N/N=C/c1ccc(C(=O)O)cc1
    6, ., ., ., -6, ., 5513
(10) COc1ccccc1N(C)S(=O)(=O)c1ccc(Cl)c(C(=O)N2CCC(C(N)=O)CC2)c1
    -7, -7, 2, 0.5, -19, 0, 2704
(11) COc1ccc(C2=NCC(CSc3nccc(=O)[nH]3)S2)cc1 (stereo unspecified)
    -2, ., ., 10, -19, 4, 4378
(21) COc1cc(NC(=O)COC(=O)CNC(=O)c2ccc(C)s2)cc(OC)c1
    7, 6, 0, 4.3, -6, -3, 3986
(23) COc1ccc(CCNC(=O)C2CCN(S(=O)(=O)N3CCC(C)CC3)CC2)cc1OC
    10, -3, 2, 0.5, -76, -3, 4006
(27) COc1ccc(/C=C2/SC(=S)N(NS(=O)(=O)c3ccccc3)C2=O)cc1
    9, 7, 7, 37, -9, 53, 5887
(38) COc1ccccc1C(=O)Nc1nnc(-c2ccc(F)cc2)o1
    -9, 6, -3, 7.8, -28, -6, 4412
(41) COc1cc(S(=O)(=O)Nc2ccccc2N2CCCCC2)ccc1NC(C)=O
    ., -9, -2, -2.5, -18, -8, 3635
(43) COc1ccc(C=NNC(=O)C(=O)/C=C2\NC3(CCCC3)Cc3ccccc32)cc1
    ., 3, 3, -3.6, ., -18, .
